Choline anaer gr: growth inhibitors of anaerobic choline-fed gram-negatives, minimal medium, absorbance | Gram-negative bacterium anaerobic choline minimal medium; active compounds read low; many inactives read as strong as hits in the columns shown | calls only | hit rate 0.2% among 55,000;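 active = growth z-score on choline under -2 at 7 or 20 h with little or no fall on glycerol, limits in tiers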;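 note: stock transfer was 300 nL into about 50 µL; the organism is E. coli; final concentration not given here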
Choline anaer gr early: recorded beside Choline anaer gr, whose call it bears; z-score; measured here: choline growth z-score, timepoint 1;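 score of optical density at 7 h as mean of two plates; lower means less growth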
An asterisk follows results filed as active; i = inactive; & = joins results of further samples.

#	molecule	Choline anaer gr early	Choline anaer gr
1	Cc1noc(C)c1S(=O)(=O)Nc1ccc2c(c1)oc(=O)n2C	-0.82	i
2	CC(=O)N1CCCc2cc(S(=O)(=O)N3CCC(C(=O)NC4CCN(Cc5ccccc5)CC4)CC3)ccc21	-1.5	i
3	CC(C)Sc1nc2ccccc2n2nnnc12	-0.25	i
4	Cn1cc(CN2CCC(C(=O)NCc3cccnc3)CC2)c2cc(Cl)ccc21	-0.74	i
5	O=C(CCN(C(=O)c1ccc(Cl)cc1)C1CCCC1)N1CCNCC1	0.3	i
6	COc1ccc(Nc2nc(C)cc(=O)[nH]2)cc1Cl	-0.76	i
7	COc1cccc(N2CCN(C(=O)C3CCN(S(=O)(=O)c4ccc5c(c4)CCCN5C(C)=O)CC3)CC2)c1	-0.16	i
8	CCN1CCN(C(=O)C2CCCN(S(=O)(=O)c3cc(-c4noc(C5CCC5)n4)cs3)C2)CC1 (stereo unspecified)	-2.2	i
9	CNC(=O)c1ccc(NC(=O)c2nsc3ccccc23)cc1	0.75	i
10	Cc1cc(S(=O)(=O)Nc2cc3c(cc2N2CCOCC2)n(C)c(=O)c(=O)n3C)ccc1F	0.57	i
11	CCOc1ccccc1CNC(=O)c1ccc(Oc2nccnc2N2CCCCC2)cc1	-2	i
12	O=C(Nc1ccc(F)cc1F)N1CCC(n2cnc3cc(F)ccc3c2=O)CC1	0.77	i
13	O=C(NC1CCS(=O)(=O)C1)c1cccn1-c1cccnc1 (stereo unspecified)	-0.47	i
14	CCn1c(=O)c2ccn(CC(=O)N3CCN(c4ccccn4)CC3)c2n(CC)c1=O	0.95	i
15	CCc1ccc(Nc2nc(C)c3nc(C)n(-c4ccc(CC)cc4)c3n2)cc1	0.57	i
16	Cc1ccc2nc(NCC3CCCO3)c(-c3noc(C)n3)cc2c1 (stereo unspecified)	-0.03	i
17	COC(=O)c1c(NC(=O)c2csnn2)sc2c1CCCC2	0.76	i
18	CCC(C)NS(=O)(=O)c1cc(-c2cc(C(F)(F)F)on2)sc1C (stereo unspecified)	-0.63	i
19	O=c1n(Cc2ccc3c(c2)OCO3)nc2c(S(=O)(=O)N3CCCCCC3)cccn12	0.14	i
20	COc1cc2c(=O)n(Cc3ccc(C(=O)NC4CC4)cc3)c(=O)n(C)c2cc1OC	0.1	i
21	O=C(c1ccc(SCCN2CCCCC2)nc1)N1CCC(N2CCCCC2)CC1	-1.6	i
22	Cc1ccc(-c2cc(N3CCN(S(=O)(=O)c4ccc(CC(C)C)cc4)CC3)ncn2)cc1	2.1	i
23	O=c1c2cn[nH]c2nc(SCc2nc(-c3ccc(F)c(Br)c3)no2)n1-c1ccccc1	0.54	i
24	Cc1ccc(C)c(/C=C/c2onc(C)c2S(=O)(=O)N2CCCC(C(=O)N(C)C3CCCCC3)C2)c1 (stereo unspecified)	1.3	i
25	CCOc1ccc(-n2c(=O)c3c4c(sc3n(CC(=O)N3CCC(C)CC3)c2=O)CCC4)cc1	1	i
26	Cc1ccc(S(=O)(=O)c2ccc(N3CCC(C(=O)OCc4ccccc4)CC3)nn2)cc1	1.6	i
27	CCn1cnc2c(-c3ccccc3)cn(CC(=O)Nc3ccccc3)c2c1=O	0.81	i
28	O=C(Oc1cccc(-n2cnnn2)c1)c1ccc(Br)cc1	-0.96	i
29	CCC1Cn2c(C(=O)NC3CC3)cc3c(Cl)ccc(c32)O1 (stereo unspecified)	1.2	i
30	CN1CCN(c2ccc(NS(=O)(=O)c3ccc(Br)cc3)c(C(=O)O)c2)CC1	-0.79	i
31	COc1ccccc1N1CCN(C(=O)CN2C(=O)CCCc3ccccc32)CC1	-0.38	i
32	Cc1ccc(-c2cc3nccc(-c4ccccc4O)n3n2)cc1	0.69	i
33	Cc1[nH]c(-c2ccc(F)cc2)cc1C(=O)N1CCC(Cc2ccccc2)CC1	1.3	i
34	Cc1ccc2nsnc2c1S(=O)(=O)N1CCCC1C(=O)O (stereo unspecified)	-0.15	i
35	Cc1onc(-c2ccc(F)cc2F)c1C(=O)N1CCOCC1	-0.41	i
36	CCOC(=O)C1CCN(c2nc3ccccc3n2Cc2cc(C)ccc2C)CC1	0.42	i
37	O=C(Nc1ccc2c(c1)CCC2)Nc1ccc2[nH]c(=O)oc2c1	-0.1	i
38	CCSc1nn(CC(=O)Nc2ccc(F)cc2F)c(N)c1S(=O)(=O)c1ccc(C)cc1	0.42	i
39	O=C(Nc1ccc(F)cc1)c1ccc2c(c1)OCCCO2	-0.98	i
40	COc1ccc(-c2cc(C)no2)cc1S(=O)(=O)N1CCCC(CN2CCc3ccccc3C2)C1 (stereo unspecified)	-1.4	i

Four compounds drawn at random from the list so far:
#	molecule	Choline anaer gr early	Choline anaer gr
17	COC(=O)c1c(NC(=O)c2csnn2)sc2c1CCCC2	0.76	i
14	CCn1c(=O)c2ccn(CC(=O)N3CCN(c4ccccn4)CC3)c2n(CC)c1=O	0.95	i
31	COc1ccccc1N1CCN(C(=O)CN2C(=O)CCCc3ccccc32)CC1	-0.38	i
30	CN1CCN(c2ccc(NS(=O)(=O)c3ccc(Br)cc3)c(C(=O)O)c2)CC1	-0.79	i

(next part)
#	molecule	Choline anaer gr early	Choline anaer gr
41	Cc1cccc(N2CCN(S(=O)(=O)c3cc(-c4nc(C(C)C)cs4)sc3C)CC2)c1C	1	i
42	CCCNC(=O)N1Cc2c(sc3c2CCCC3)-n2cccc2C1C (stereo unspecified)	1.5	i
43	O=C(CN1c2ccccc2NC2=C(C(=O)CCC2)C1c1cccs1)NC1CCCCCC1 (stereo unspecified)	-0.56	i
44	COc1ccc(-c2cnc3ncnn3c2N)cc1OC	-0.32	i
45	O=C(NC1CCN(Cc2ccccc2)CC1)c1ccc2nc3cc(Cl)ccc3c(=O)n2c1	-0.19	i
46	CCOc1ccccc1N(Cc1nc2nc(C)cc(=O)n2[nH]1)C(=O)CC(C)C	0.4	i
47	COc1cccc(Nc2ccc3cc(S(=O)(=O)N4CCCCC4)ccc3n2)c1	1.9	i
48	CCOc1cc(CNCCSc2nnnn2C)ccc1OC	0.64	i
49	O=C(CSc1nc2ccsc2c(=O)n1-c1ccccc1)Nc1ncn[nH]1	-1.7	i
50	O=C(CCc1cn(-c2ccccc2)nc1-c1ccc2c(c1)OCO2)N1CCOCC1	-0.39	i
51	CC1(C(=O)NC2CCCC2)Cn2c(ccc2-c2ccccc2)C(=O)N1CCc1ccccc1 (stereo unspecified)	0.39	i
52	Cc1nc(-n2[nH]c(C)c(CC(=O)N3CCCC3)c2=O)sc1C	0.46	i
53	Cc1ccsc1C(=O)Nc1nnc(SCc2nnc(-c3ccccc3)o2)s1	-0.3	i
54	N#Cc1nc(-c2ccc(S(=O)(=O)N3CCOCC3)cc2)oc1NC1CCCCC1	0.12	i
55	Cc1ccccc1C1CC(=O)Nc2c1c(-c1ccccc1)nn2-c1ccccc1 (stereo unspecified)	1.2	i
56	Cn1c(=O)n(Cc2ccccc2)c(=O)c2cc3c(nc21)CC(C)(C)OC3	0.24	i
57	Fc1ccc(-c2noc(-c3ccc(NC4CC4)nc3)n2)cc1	-0.61	i
58	CC1(C(=O)NC2CCCCC2)CCC(=O)N1Cc1ccc2c(c1)OCO2 (stereo unspecified)	0.91	i
59	CC1CCN(c2nc(C(=O)NCCCOC(C)C)nc3nn(C)cc23)CC1	0.58	i
60	O=S(=O)(c1ccc2c(c1)-c1oncc1CO2)N1CCCc2ccccc21	0.19	i
61	Cc1ccc(-c2csc3ncnc(NCc4ccc5c(c4)OCO5)c23)cc1	1.5	i
62	CN(C(=O)CSc1nnc(-c2cc3ccccc3n2C)o1)c1ccccc1	-0.02	i
63	Cc1ccc(S(=O)(=O)N2CCCC2c2cc(C(C)C)no2)cc1 (stereo unspecified)	-0.93	i
64	O=c1c(O)c(-c2ccc(O)c(O)c2)oc2cc(O)cc(O)c12	0.81&0.99	i
65	Cc1cc(C)c(S(=O)(=O)NCc2cn3ccsc3n2)cc1C	0.65	i
66	O=C(NCC1CCCO1)c1cc(NS(=O)(=O)c2ccc(Cl)cc2)cnc1N1CCNCC1 (stereo unspecified)	0.25	i
67	Cn1cc2c3c(cccc31)CN(C(=O)C1CCC1)CC2	0.06	i
68	CN(C)CCCCSC(=N)N	-0.05	i
69	Cc1nn(CC(=O)N2CCc3ccccc32)c(C)c1S(=O)(=O)N1CCCC(C(=O)Nc2ccccn2)C1 (stereo unspecified)	-1.1	i
70	CC1(C(=O)NC2CCCCC2)Cn2c(cc3ccsc32)C(=O)N1Cc1cccnc1 (stereo unspecified)	0.07	i
71	O=C(C1CC(c2ccc(F)cc2)=NO1)N1CCCCC1 (stereo unspecified)	-1.5	i
72	Cc1oc(-c2cccc(Cl)c2)nc1CN1CCN(C(=O)CC(C)C)CC1	-1.5	i
73	COc1ccc(C(=O)NCCn2c(-c3ccccc3)nc3cccnc32)cc1OC	-0.03	i
74	Cc1ccc(-c2noc(-c3ccccc3S(=O)(=O)N3CCCCC3)n2)cc1	0.18	i
75	O=C(CC1CCN(S(=O)(=O)c2cccs2)CC1)NCCC1=CCCCC1	-0.4	i
76	Cc1ccc(NC(=O)c2nnc(SCC(=O)N3CCN(c4ccccn4)CC3)s2)cc1	0.65	i
77	COc1ccccc1OCc1nn2c(-c3ccoc3C)nnc2s1	0.52	i
78	COCC(=O)N(Cc1nc2nc(C)cc(=O)n2[nH]1)c1ccc(Cl)cc1	-1.1	i
79	O=C(Nc1ccc2c(c1)OCO2)N1CCc2c([nH]c3ccc(Cl)cc23)C1c1ccc(F)cc1 (stereo unspecified)	0.43	i
80	Cc1nc2c(-c3ccccc3)noc2c(=O)n1CC(=O)O	-0.08	i
81	C[C@]12C=CC(=O)C=C1CC[C@H]1[C@@H]3CC(O)[C@@](O)(C(=O)CO)[C@@]3(C)CC(O)[C@]12F (stereo partly specified)	-0.67	i
82	O=C(CSc1nc2cc(C(=O)NC3CCCC3)ccc2c(=O)n1CCc1ccccc1)c1ccc(F)cc1	-1.6	i
83	OCc1c[nH]c2ccccc12	0.57	i
84	Cc1sc(-c2cc(C(F)(F)F)[nH]n2)cc1S(=O)(=O)N1CCC(C)CC1	0.25	i
85	CCCn1c(=O)c2sccc2n2c(SCc3ccccc3C)nnc12	2.1	i
86	Cc1cc(C)n(-c2nc(CC(=O)NC(C)C)cs2)n1	-1.9	i
87	COc1ccc(C2CC(=O)C3=C(C2)Nc2onc(C)c2C3c2ccc(O)c(OC)c2)cc1 (stereo unspecified)	-0.94	i
88	CCc1onc(C)c1C1CCCN1Cc1cc(OC)ccc1OC (stereo unspecified)	-0.98	i
89	COc1ccc(OC)c(C2CC(=O)Nc3c2c(C)nn3-c2nc3ccc(OC)cc3s2)c1 (stereo unspecified)	0.08	i
90	Cc1ccccc1CNC(=O)C1CCN(C(=O)c2cc3oc4ccccc4c3n2C)CC1	-0.46	i
91	CCCc1nnc2sc(-c3c[nH]c4ccccc34)nn12	-0.13	i
92	Cc1noc(C)c1CCNC(=O)CSc1ncnc2c1sc1cccc(F)c12	1.3	i
93	COc1ccccc1NC(=O)CCn1c(C(F)(F)F)nc2cc(S(=O)(=O)N(C)C)ccc21	-0.21	i
94	CC1(C(=O)NC2CCCC2)Cn2c(cc3sccc32)C(=O)N1CCCN1CCOCC1 (stereo unspecified)	0	i
95	CC(C)NCc1ccc(-c2ccccc2Cl)o1	-0.44	i
96	Cc1nc(-c2ccc(C(=O)N3CCCCC3)cc2)cs1	-0.57	i
97	CC(C)c1ccc(-c2noc(N3CCC(C(=O)N4CCN(c5ccccn5)CC4)CC3)n2)cc1	0.73	i
98	O=C(CCCc1nc(-c2ccc(Cl)cc2)no1)Nc1nccs1	0.45	i
99	CN(C)C(=O)c1ccc2c(c1)N(CC(=O)Nc1ccc3c(c1)OCO3)C(=O)CO2	-0.5	i
100	Cc1cccc(C(=O)Oc2cc(-c3ccc4c(c3)OCO4)cc(=O)c3c(C)oc(C)c23)c1	-1.1	i

Continuation.
#	molecule	Choline anaer gr early	Choline anaer gr
101	O=C(c1cc2c(s1)-c1ccc(Cl)cc1S(=O)(=O)C2)N1CCCCC1c1cccnc1 (stereo unspecified)	1.1	i
102	COc1ccc(S(=O)(=O)Nc2ccc3c(c2)CCCN3S(C)(=O)=O)cc1OC	-0.94	i
103	O=C(NC1CCCC1)C1CCN(c2nn3c(=O)c4c(nc3s2)CCCC4)CC1	0.59	i
104	Cc1ccc(N2CC(c3nnc(NC(=O)c4ccccc4Br)o3)CC2=O)cc1 (stereo unspecified)	0.12	i
105	O=C(c1nc(Cn2c(=O)oc3ccccc32)no1)N1CCCC1	-1.5	i
106	CCC(=O)Nc1cccc(-c2noc(C3CCCN(C(=O)CNC(=O)Cc4ccccc4)C3)n2)c1 (stereo unspecified)	-0.06	i
107	Cc1csc2ncc(C(=O)N3CCN(C(c4ccccc4)c4ccccc4)CC3)c(=O)n12	-1	i
108	Cc1cccc(C(=O)Nc2cc(F)c3[nH]c(=O)ccc3c2)c1	0.97	i
109	O=C(CSc1ccccc1)N1CCc2c([nH]c3ccccc23)C1c1cccnc1 (stereo unspecified)	1.3	i
110	Cc1nnc(SCc2cc(=O)n3c(C)cccc3n2)s1	-0.85	i
111	CCn1nccc1NC(=O)c1ccc(C(C)(C)C)cc1	-0.67	i
112	CCCOc1ccc(CN2CCCC2c2cc(C(C)C)on2)cc1 (stereo unspecified)	0.04	i

3 entries from above, with each value named.
85. CCCn1c(=O)c2sccc2n2c(SCc3ccccc3C)nnc12
  Choline anaer gr early: 2.1
  Choline anaer gr: i
46. CCOc1ccccc1N(Cc1nc2nc(C)cc(=O)n2[nH]1)C(=O)CC(C)C
  Choline anaer gr early: 0.4
  Choline anaer gr: i
3. CC(C)Sc1nc2ccccc2n2nnnc12
  Choline anaer gr early: -0.25
  Choline anaer gr: i

Screens from PubChem BioAssay.

This is a subset; count on the stated rates, not on these rows.
